Compound activity: PubChem BioAssay, National Center for Advancing Translational Sciences (NCATS)
2A StopGo – FMDV 2A StopGo reporter, luciferase signal; human cells with a luciferase reporter of 2A StopGo recoding; control for the full effect not named in the record; AID 1159524; Potency, µM (series often up to 57.9 µM), without a hit: top-dose signal change, negative = less light; 410,000 tested, 1.2% active; active = well fitted falling curve with a large enough effect; inconclusive = small, poorly fitted or top-dose-only effect; inactive = no such curve, though single readings can be large or run the other way; tested in HEK293T cells; also: % is scaled to controls: 0 for no effect and ±100 for the full control effect; nearly all actives have a fitted effect of over 45% in size; luciferase light after 4 h
RE007 growth inh – less growth of the S. pombe RE007 Vpr strain; S. pombe RE007 Vpr strain, BacTiter-Glo ATP luminescence, 24 h; control for the full effect not named in the record; 360,000 tested, 0.21% active; AID 651644; Potency, µM (top dose mostly 92.2 µM), without a hit: top-dose activity change, negative = less growth; active = well fitted falling curve with a large enough effect; inconclusive = small, poorly fitted or top-dose-only effect; inactive = no such curve, though single readings can be large or run the other way;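 also: % is scaled to controls: 0 for no effect and ±100 for the full control effect; nearly all actives have a fitted effect of over 50% in size; the assay follows cell death caused by Vpr and the record does not say whether a fall means rescue or toxicity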
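Fission yeast strain RE007, carrying one chromosomally integrated HIV-1 vpr copy, was seeded at OD 0.01 in PMG+AL medium with 23 nL pinned compound. After 24 h at 30 °C and 99% humidity, viability was read by BacTiter-Glo luminescence.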
SARS PLpro yeast – SARS-CoV PLP inhibition in yeast. 330,000 tested, 0.19% active. Potency, µM (highest dose often 32.9 µM), for the others: at the highest dose activity, positive = growth rescue. S. cerevisiae expressing SARS-CoV PLpro, growth rescue; control for the full effect not named in the record. AID 485353; active means well fitted rising curve with a large enough effect; inconclusive means small, poorly fitted or top-dose-only effect; inactive means no such curve, though single readings can be large or run the other way; also: 0% is about no effect; nearly all actives have a fitted effect of over 55% in size; growth read by luminescence after 48 h
Starred values were filed as active, the others as inactive; ? = inconclusive; [ ] = remark or other dose. Potency is read from the fitted curve at half-maximal effect. This is a subset, so the mix of outcomes need not match the whole.

SMILES	2A StopGo	RE007 growth inh	SARS PLpro yeast
C[C@@H](NC(=O)c1nc[nH]c1C(=O)N(C)Cc1ccccc1)c1ccccc1	-18%	21%	-2%
Cc1cc(C)c(NC(=O)CN(C)C(=O)CCC(=O)c2ccc(C)s2)c(C)c1	-14%	0%	-6%
CN(Cc1cccc(F)c1)C(=O)c1ccc(S(=O)(=O)N2CCOCC2)cc1	-10%	2%	1%
CC1CC(C)(C)CC2(C1)NC(=O)N(CC(=O)Nc1cc([N+](=O)[O-])ccc1F)C2=O (stereo not drawn)	-28%	4%	2%
O=C(COC(=O)c1ccc(OC(F)F)cc1)NCCC1=CCCCC1	-20%	-4%	-1%
CC(Sc1nnnn1C)C(=O)Nc1ncc(Cl)cc1Cl (stereo not drawn)	-12%	-10%	0%
COc1ccc(C2=NOC(Cn3nc(C(=O)NCc4cccs4)cc3-c3ccccc3)C2)cc1 (stereo not drawn)	-6%	11%	-7%
COc1ccc(O)c(/C=N/NC(=S)Nc2cccnc2)c1	10%	5%	22%
COC(=O)c1cc(C(=O)OCC(=O)Nc2ccc(N3CCOCC3)cc2)cc([N+](=O)[O-])c1	-12%	10%	-8%
COc1ccc(S(=O)(=O)N2CCCCC2)cc1NC(=O)c1ccc(C)cc1	-6%	-22%	1%
COc1cccc(CC(=O)OCc2csc(CC(=O)Nc3ccccc3C)n2)c1	-6%	-13%	-9%
COC(=O)[C@]1(Cc2ccccc2)N[C@H](CN(C)S(=O)(=O)c2ccc(C)cc2)[C@@H]2C(=O)N(Cc3ccccc3)C(=O)[C@@H]21	-20%	12%	0%

Among those listed so far, 4 have a halogen.
SMILES	2A StopGo	RE007 growth inh	SARS PLpro yeast
CN(Cc1cccc(F)c1)C(=O)c1ccc(S(=O)(=O)N2CCOCC2)cc1	-10%	2%	1%
CC1CC(C)(C)CC2(C1)NC(=O)N(CC(=O)Nc1cc([N+](=O)[O-])ccc1F)C2=O (stereo not drawn)	-28%	4%	2%
O=C(COC(=O)c1ccc(OC(F)F)cc1)NCCC1=CCCCC1	-20%	-4%	-1%
CC(Sc1nnnn1C)C(=O)Nc1ncc(Cl)cc1Cl (stereo not drawn)	-12%	-10%	0%

Next part.
SMILES	2A StopGo	RE007 growth inh	SARS PLpro yeast
Cc1cccc(OCC(=O)NNC(=O)c2ccc([N+](=O)[O-])cc2)c1	15%	2%	0%
O=C(NCc1ccc2c(c1)OCO2)c1c(-c2ccsc2)sc2ccccc12	-23%	-7%	8%
O=C1N[C@@H](Cc2ccccc2)COC(=O)[C@H](Cc2ccc(F)cc2)C/C=C\C[C@@H]1CC(=O)N(CCO)Cc1ccccc1	-29%	0%	-10%
Cc1cccc(NC(=O)c2nc[nH]c2C(=O)NCCCCNC(=O)c2[nH]cnc2C(=O)Nc2cccc(C)c2)c1	-29%	3%	-4%
CCCCNC(=O)CCC(=O)Nc1ccc2nc(N3CCN(C)CC3)cc(C)c2c1	10%	-12%	1%
O=c1[nH][nH]c(C(F)(F)F)c1/C=N/N1CCOCC1	-5%	-10%	0%
CC(C)c1cccc(C(C)C)c1OC(=O)[C@H]1OC(c2ccc(Br)cc2)=C[C@@H]1c1ccc(Br)cc1	?	-5%	0%
CCNc1sc(S(C)(=O)=O)nc1S(=O)(=O)c1ccc(Cl)cc1	23%	-7%	-1%
CC1(C)NC(=O)N(CC(=O)N2CCN(c3cccc(Cl)c3)CC2)C1=O	-22%	0%	-6%
COC(=O)[C@]1(CC(C)C)N[C@H](c2ccc(-c3ccc(Cl)c(Cl)c3)cc2)[C@@H]2C(=O)N(C)C(=O)[C@@H]21	?	-2%	1%
Cc1cc(C)c2c(c1)OC(=O)CC2c1ccc2c(c1)OCO2 (stereo not drawn)	-15%	6%	-36%
Cc1ccc(S(=O)(=O)N2CCN(C(=O)COC(=O)/C=C/c3ccccc3)CC2)c(C)c1	-17%	-24%	2%
CCN(C(=O)COC(=O)c1ccc(SC)cc1OC)C1CCS(=O)(=O)C1 (stereo not drawn)	-4%	-9%	2%
COc1ccc([C@@H](OC)[C@@]2(Cc3ccc(O)cc3)N=C(N)N(C)C2=O)cc1	-14%	-4%	2%
COc1ccc([C@@H]2CC=C(C(=O)O)[C@H](c3cccc(Cl)c3)N2S(=O)(=O)c2ccccc2C)cc1	26%	-11%	7%
CC(Oc1cccc([N+](=O)[O-])c1)C(=O)NCCC1=CCCCC1 (stereo not drawn)	3%	-5%	-2%
CCOC(=O)c1ccc(/[N+]([O-])=C/c2ccccc2)cc1	30%	26%	-9%
CCOC(=O)c1cc(-c2ccccc2C)nn1Cc1cc(C)no1	32%[activator]	-14%	1%
COC(=O)C1=C(c2ccc(OCc3ccccc3)cc2)C[C@@H]2CC[C@H]1N2C(=O)NCCCc1ccccc1	-21%	17%	-5%
CC(=NCCc1ccccc1)C1=C(O)C(c2ccccc2)OC1=O (stereo not drawn)	-8%	3%	1%
Cn1cccc1C(=O)OCC(=O)N1CCc2ccccc21	69%[activator]	11%	-3%
CCN(C(=O)C(C)Sc1ccc(S(=O)(=O)N2CCN(C)CC2)cn1)c1ccccc1 (stereo not drawn)	-11%	1%	-3%
COC(=O)C1=C(c2ccc(F)cc2OCc2ccccc2)C[C@@H]2CC[C@H]1N2C(=O)NCc1ccccc1	-28%	1%	-1%
CCOC(=O)C(Cc1ccc(NC(C)=O)cc1)N1C(=O)c2ccccc2C1=O (stereo not drawn)	?	14%	-1%
CN(CC(=O)Nc1ccc(F)cc1[N+](=O)[O-])C1CCS(=O)(=O)C1 (stereo not drawn)	-9%	5%	-3%
CCC/C(C(=O)NCCO)=C1/c2ccccc2C(=O)N1c1ccccc1	-6%	11%	-6%
Cn1cncc1C#Cc1c(C=O)n(C)c2ccccc12	4%	16%	-1%
Cc1ccc(NC(=O)COC(=O)CN2C(=O)C3CCCCC3C2=O)cc1C (stereo not drawn)	-5%	-12%	7%
Cc1ccsc1C(C(=O)NC(C)(C)C)N(C(=O)c1csnn1)c1ccccc1 (stereo not drawn)	11%	0%	0%
Cc1ccnc2nc(C(=O)OC(C)C(=O)NCc3ccccc3)nn12 (stereo not drawn)	-12%	7%	4%
Cc1cccc(C)c1NC(=O)CN(C)CC(=O)N(C)CC(=O)Nc1ccccc1Br	-5%	-5%	0%
Cc1noc(C)c1NC(=O)N(C)C[C@H]1Oc2c(NC(=O)C3CCCCC3)cccc2C(=O)N([C@H](C)CO)C[C@@H]1C	38%[activator]	1%	-5%
COc1ccc(NS(=O)(=O)c2cccc(C(=O)NNC(=O)c3ccc(O)c(Cl)c3)c2)cc1	2%	16%	0%
O=c1cnc(-c2ccc(Cl)cc2)cn1O	1%	10%	12%
CC(=O)c1cccc(NC(=O)/C=C/c2ccc(S(=O)(=O)N3CCOCC3)cc2)c1	?	1%	1%
C[C@H](CO)N1C[C@H](C)[C@@H](CN(C)C(=O)Nc2ccc(C(F)(F)F)cc2)Oc2ccc(NC(=O)Cc3ccccc3)cc2C1=O	-14%	-1%	-3%
CN(C(=O)COC(=O)c1cc2ccccc2cc1O)c1ccccc1	38%[activator]	-24%	3%
Cc1c(C(=O)OCC(=O)NCc2ccco2)oc2ccccc12	15%	-7%	3%
CCC(=O)c1ccc(OCC(=O)NCC2COc3ccccc3O2)cc1 (stereo not drawn)	-29%	?	-5%
COC(=O)c1ccc(C(=O)Nc2ccc(F)cc2)cc1	8%	-10%	4%
Cc1c(NC(=O)COc2ccccc2Cl)c(=O)n(-c2ccccc2)n1C	-19%	3%	-14%
COC(=O)[C@]1(Cc2ccccc2)N[C@H](c2ccc(-c3ccc(OC)cc3)cc2)[C@@H]2C(=O)N(C)C(=O)[C@@H]21	-8%	12%	-6%
O=C(NCCC(=O)N(Cc1ccco1)Cc1cccs1)c1ccccc1Cl	-12%	0%	8%
COc1ccc(CCNC(=O)CSc2ccsc2[N+](=O)[O-])c(OC)c1	-6%	-11%	1%
Nc1ncnc2c1ncn2[C@@H]1O[C@H](CNC(=O)[C@@H]2CCN2)[C@@H](O)[C@H]1O	-20%	-13%	-2%
CCCS(=O)(=O)N1CCN=C1SCc1ccc(C)cc1	-9%	27%	13%
CCc1cc(Cn2nc(C(=O)O)cc2-c2ccccc2)on1	-6%	-2%	0%
CC(C)NC(=O)Nc1ccc2c(c1)C(=O)N([C@H](C)CO)C[C@H](C)[C@@H](CN(C)C(=O)NC1CCCCC1)O2	-13%	3%	2%
COc1ccc(NC(=O)COC(=O)c2ccc(-n3nc(C)cc3C)cc2)cc1OC	?	-8%	2%
CC12CCC(=O)N1C(C(=O)Nc1nc3ccc(F)cc3s1)CS2 (stereo not drawn)	26%	-3%	-1%
NS(=O)(=O)c1ccc(CCNC(=O)C2CC(=O)N(Cc3ccccc3Cl)C2)cc1 (stereo not drawn)	-2%	12%	-5%
COc1ccc(NC(=O)c2ccc(Cl)nc2)cc1S(=O)(=O)N1CCOCC1	-19%	16%	0%
Cc1ccc(S(=O)(=O)N2[C@@H](c3ccc(Br)cc3)C(C(=O)O)=CC[C@H]2c2ccc(Cl)c(Cl)c2)cc1	?	3%	-4%
COc1cc(NC(=O)COC(=O)c2cnc(C)cn2)c(C)cc1[N+](=O)[O-]	-5%	16%	-4%
O=C(NN=Cc1ccc(O)cc1O)c1ccccc1NS(=O)(=O)c1cccs1	24%	6%	1.1µM*
CCOC(=O)C1C(O)=CC(=O)CC1c1ccccc1 (stereo not drawn)	7%	4%	-12%
Cc1cccc(NC(=S)N2CCCC(c3nc4ccccc4[nH]3)C2)c1 (stereo not drawn)	-14%	1%	-4%
CCOC(=O)C1=C(COC(=O)/C=C/c2ccc(C)o2)NC(=O)NC1C (stereo not drawn)	-21%	-8%	-3%
CN(C(=O)c1ccc(NC(=O)Cc2ccc(NC(=O)C3CCCN(C(=O)c4ccccc4)C3)cc2)cc1)C1CC1 (stereo not drawn)	-19%	5%	-1%
CC(C(=O)Nc1ccc(S(=O)(=O)N2CCCC2)cc1)N(C)CC(=O)Nc1cccc(F)c1 (stereo not drawn)	-22%	15%	-8%
Later entries
SMILES	2A StopGo	RE007 growth inh	SARS PLpro yeast
COc1cc(OC)cc(-c2sc3ccc(OC)cc3c2C#CCCO)c1	-7%	-4%	2%
COc1cc(/C=N/NC(=O)c2cccc([N+](=O)[O-])c2)cc(OC)c1O	6%	13%	2%
CCc1noc(C)c1C(=O)N1CCN(S(=O)(=O)c2ccc(Cl)cc2)CC1	-7%	-1%	6%
CC1CCC(NC(=O)CSc2nnnn2C)CC1 (stereo not drawn)	21%	2%	-2%
CC(C)(C)NC(=O)CSc1nnc(NC(=O)c2ccccc2Cl)s1	42%[activator]	11%	2%
COc1ccccc1C(=O)N(CCN(C)C)c1nc2cc(C)cc(C)c2s1	-17%	-12%	0%
CCCCC(=O)OCc1c(-c2cccc(OC)c2)ncc2ccccc12	-25%	4%	0%
O=C(COC(=O)c1ccco1)Nc1ccc2[nH]c(=O)[nH]c2c1	?	-5%	-16%
O=C(OCC(=O)N1CCOCC1)c1cccc(S(=O)(=O)Nc2ccc(F)cc2)c1	36%[activator]	-3%	-1%
CNC(=O)c1ccc(NC(=O)c2ccc3c(=O)n4c(nc3c2)CCC4)cc1	-18%	0%	3%
Cc1ccc(NC(=O)COC(=O)C2(CC(=O)NC(C)C)CCCC2)cc1C	-5%	0%	-3%
COC(=O)[C@@]12CCCN1[C@H](c1ccc(-c3ccc(OC)cc3)c(OC)c1)[C@@H]1C(=O)N(C)C(=O)[C@@H]12	-13%	14%	2%

Laid out differently: entries from further up
Results follow in this order: 2A StopGo	RE007 growth inh	SARS PLpro yeast
Cc1ccc(NC(=O)COC(=O)C2(CC(=O)NC(C)C)CCCC2)cc1C
    -5%	0%	-3%
CN(C(=O)COC(=O)c1cc2ccccc2cc1O)c1ccccc1
    38%[activator]	-24%	3%
CCOC(=O)C(Cc1ccc(NC(C)=O)cc1)N1C(=O)c2ccccc2C1=O (stereo not drawn)
    ?	14%	-1%

Remaining list, next part:
SMILES	2A StopGo	RE007 growth inh	SARS PLpro yeast
Cc1ccc(C)c(NC(=O)COC(=O)CSc2ccccc2)c1	-17%	-18%	-3%
CC(C)CCC1(C)NC(=O)N(CC(=O)NCC(=O)Nc2ccc(F)c(F)c2F)C1=O (stereo not drawn)	-12%	2%	-4%
COc1ccc(-c2c(C#Cc3ccc(N(C)C)cc3)c3ccccc3n2C)cc1	34%[activator]	-5%	4%
CC(=O)c1ccccc1NC(=O)COC(=O)c1cc2ccccc2[nH]1	-36%	3%	1%
CC(NC(=O)CN(C)S(=O)(=O)c1cnc[nH]1)c1ccccc1 (stereo not drawn)	-3%	-17%	2%
CCN(C(=O)COC(=O)c1ccc([N+](=O)[O-])o1)C1CCCCC1	-8%	-7%	8%
COC(=O)C(Cc1ccccc1)NC(=O)c1ccc(C)cc1 (stereo not drawn)	58%[activator]	3%	2%
C[C@H](CO)N1C[C@H](C)[C@@H](CN(C)C(=O)Nc2ccccc2)Oc2ccc(NC(=O)NC3CCCCC3)cc2C1=O	13%	-4%	-14%
